CSC inhib = cancer stem cell inhibition | inhibition, % at 7.5 µM | cancer stem cell-like cells viability, luminescence | 300,000 compounds, 1.1% hits;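 active means mean at 75% or more and at least half the replicates too; inconclusive means mean and replicates disagree; tested in HMLE shEcad cells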;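 further: 0% = median of negative and 100% = median of positive control wells; the first replicate is given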
eIF4H FP inh = inhibitors of RNA binding by human eIF4H. Q15056. eIF4H fluorescence polarization binding assay. inhibition, % at 35 µM. 290,000 compounds, 0.94% hits;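 active means 50% or more with normal probe brightness, or confirmed in later tests; inconclusive means above 50% with abnormal brightness, or retests that disagree; inactive means below 50% or failed in later tests; about a fifth of its hits are not listed in these tables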;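 further: calls also rest on retests at 20 µM and on dose response follow-up; 0% = protein and probe with vehicle and 100% = probe without protein; strong numbers were not always called active; many hits fall short of the cut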
Rce1 inh = yeast Ras-converting enzyme inhibition. yeast membranes, quenched prenylated peptide cleavage fluorescence. calls only. 290,000 compounds, 0.27% hits. AID 2563;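 active means fall in fluorescence gain of 50% or more versus controls, with final raw signal at or below 3038400; inconclusive means same 50% fall but final raw signal above 3038400; inactive means fall in fluorescence gain under 50%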;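 further: plate controls were neutral control wells for no effect and wells lacking membranes for full effect; tested at 10 µM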
Target sequence (Q03530 whole entry, looked up): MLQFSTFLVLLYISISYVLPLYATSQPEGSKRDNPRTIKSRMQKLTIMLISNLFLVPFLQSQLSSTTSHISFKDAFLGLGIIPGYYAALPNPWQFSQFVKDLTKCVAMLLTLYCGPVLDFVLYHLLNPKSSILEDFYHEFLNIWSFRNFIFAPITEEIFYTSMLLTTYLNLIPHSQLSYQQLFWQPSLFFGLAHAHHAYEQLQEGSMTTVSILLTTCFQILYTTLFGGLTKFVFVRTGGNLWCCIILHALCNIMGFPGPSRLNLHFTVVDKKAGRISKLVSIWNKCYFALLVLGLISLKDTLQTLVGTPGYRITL
PABP polyA inh = PABP-poly(A) binding inhibition. PABP-poly(A) RNA binding, fluorescence polarization. 290,000 compounds, 1% hits. P11940. inhibition, % at 35 µM. AID 2014;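 active means 50% or more with normal probe brightness, or confirmed in later tests; inconclusive means above 50% with abnormal brightness, or retests that disagree; inactive means below 50% or failed in later tests; about a fifth of its hits are not listed in these tables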;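 further: calls also rest on retests at 20 µM and on dose response follow-up; controls were probe without protein and protein plus probe with vehicle; some compounds called inactive have numbers as strong as hits; many hits fall short of the cut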
Env fusion inh = inhibitors of HIV Env-mediated cell fusion; HeLa-JRFL Env/CEM21 cell fusion, luciferase; inhibition, % at 12.3 µM; 360,000 compounds, 1.1% hits;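 active means mean replicate inhibition score of at least 50 and every replicate individually at or above 50; inconclusive means only one of the two criteria met; inactive means mean below 50 and not all replicates reaching 50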;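 further: 0% = plate neutral controls and 100% = maraviroc near 300 nM; one replicate is shown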
Yeast UUG start = modulators of start codon recognition fidelity in yeast. S. cerevisiae UUG-firefly luciferase reporter, luminescence/redox ratio. activity score, % at 18.7 µM. 350,000 compounds, 0.13% hits. AID 602363;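 active means replicate mean at a twofold rise or more, about +100% in these data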;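 further: firefly luciferase made from a UUG start codon reports start codon fidelity; reporter light over untreated wells divided by growth signal over untreated wells; some hits fall short of that in this replicate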
MT1-MMP act inh = inhibitors of human MT1-MMP activation. HT1080 RFP-PRO-GFP cells, GFP/RFP ratio fluorescence, overnight; percent of plate control window, DMSO zero. GFP/RFP ratio change, % at 20 µM. 360,000 compounds, 0.061% hits;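 active means GFP/RFP ratio change of at least 30% with cell ATP level not reduced by more than half and red fluorescence within 50% of control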; further: strong numbers were not always called active
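Test system: HT1080 cells expressing an RFP-PRO-GFP fluorescent reporter construct / Compound dosing: single-point 20 µM compound, 1% DMSO / Schedule: cells overnight before dosing, compound overnight, 37 °C, 5% CO2 / Evaluation: GFP/RFP fluorescence ratio / Control set: DMSO and RFP-L50D-GFP cell wells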
MT1-MMP act inh RFP = second read-out of MT1-MMP act inh, no call of its own (marks repeat the call); RFP signal change, %; measured here: RFP expression control read;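 0 = vehicle wells; hits needed this value within 50% of zero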
* marks the source's active call; other numbers are inactive results; i = inactive; ? = inconclusive; / = not tested or not shown; + = active, no number.

SMILES	CSC inhib	eIF4H FP inh	Rce1 inh	PABP polyA inh	Env fusion inh	Yeast UUG start	MT1-MMP act inh	MT1-MMP act inh RFP
Cc1ccc(S(=O)(=O)NC2c3cccc4cccc(c34)C2Sc2nc(C)cc(C)n2)cc1 (stereo unspecified)	12	-5	i	-4	98*	-11	-5	-6
Cc1ccc(N2CCC3CC2c2cc(-c4ccc(C(F)(F)F)cc4)ccc23)cc1 (stereo unspecified)	/	/	/	/	-4	-14	0	-4
NCC(=O)c1cccc2ccc[n+]([O-])c12	1	4	i	5	19	-5	-1	-2
COc1ccc(CNC2CC(C)N(C)CC2C)cc1OC (stereo unspecified)	-10	-4	i	12	4	-15	0	1
O=C(Nc1cc(S(=O)(=O)N2CCCC2)ccc1Cl)c1ccncc1	-10	/	/	/	/	-40	-1	-2
Cn1c(=O)c2c(nc(SCC(=O)c3ccc(F)cc3)n2C)n(C)c1=O	18	-5	i	-7	-6	-7	0	-4
Cc1ccc(/C=N/NC(=O)CC2N=C(Cc3ccccc3)NNC2=O)cc1 (stereo unspecified)	-13	/	i	/	/	8	-3	0
C#CCN1C(=O)C(O)(CC(=O)c2ccc(OC)c(OC)c2)c2ccccc21 (stereo unspecified)	7	-3	i	-2	-1	-14	-5	-2
CN1C2CCC1CC(NC(=O)CSCc1ccc(Cl)cc1Cl)C2 (stereo unspecified)	-3	44	i	18	21	/	-12	-5
O=C(Nc1nccs1)C1CCCCN1S(=O)(=O)c1ccccc1 (stereo unspecified)	-14	-4	i	-2	-10	/	2	0
N=c1sccn1CC(=O)Nc1ccc([N+](=O)[O-])cc1Cl	15	-4	i	2	1	/	0	2
COc1ccc(NC(=O)c2cccc3cccnc23)cc1S(N)(=O)=O	-19	-4	i	-2	-13	-11	2	3
O=C(CSc1nnc(-c2ccncc2)n1C1CC1)c1cccs1	/	/	/	/	-68	-10	-2	2
O=C(CCCCCN1C(=O)c2cccc3cccc(c23)C1=O)NCc1ccco1	-4	9	i	15	-4	24	-2	-1
COc1ccc(CCNC(=O)CN(c2ccc(OC)cc2)S(C)(=O)=O)cc1	/	0	i	7	9	/	3	2

An excerpt of these results, with values under each structure.
Second line of a record – CSC inhib | eIF4H FP inh | Rce1 inh | PABP polyA inh | Env fusion inh | Yeast UUG start | MT1-MMP act inh | MT1-MMP act inh RFP
- Cc1ccc(S(=O)(=O)NC2c3cccc4cccc(c34)C2Sc2nc(C)cc(C)n2)cc1 (stereo unspecified)
    12 | -5 | i | -4 | 98* | -11 | -5 | -6
- Cc1ccc(N2CCC3CC2c2cc(-c4ccc(C(F)(F)F)cc4)ccc23)cc1 (stereo unspecified)
    / | / | / | / | -4 | -14 | 0 | -4
- NCC(=O)c1cccc2ccc[n+]([O-])c12
    1 | 4 | i | 5 | 19 | -5 | -1 | -2
- COc1ccc(CNC2CC(C)N(C)CC2C)cc1OC (stereo unspecified)
    -10 | -4 | i | 12 | 4 | -15 | 0 | 1
- O=C(Nc1cc(S(=O)(=O)N2CCCC2)ccc1Cl)c1ccncc1
    -10 | / | / | / | / | -40 | -1 | -2
- Cn1c(=O)c2c(nc(SCC(=O)c3ccc(F)cc3)n2C)n(C)c1=O
    18 | -5 | i | -7 | -6 | -7 | 0 | -4
- Cc1ccc(/C=N/NC(=O)CC2N=C(Cc3ccccc3)NNC2=O)cc1 (stereo unspecified)
    -13 | / | i | / | / | 8 | -3 | 0
- C#CCN1C(=O)C(O)(CC(=O)c2ccc(OC)c(OC)c2)c2ccccc21 (stereo unspecified)
    7 | -3 | i | -2 | -1 | -14 | -5 | -2
- CN1C2CCC1CC(NC(=O)CSCc1ccc(Cl)cc1Cl)C2 (stereo unspecified)
    -3 | 44 | i | 18 | 21 | / | -12 | -5
- O=C(Nc1nccs1)C1CCCCN1S(=O)(=O)c1ccccc1 (stereo unspecified)
    -14 | -4 | i | -2 | -10 | / | 2 | 0
- N=c1sccn1CC(=O)Nc1ccc([N+](=O)[O-])cc1Cl
    15 | -4 | i | 2 | 1 | / | 0 | 2
- COc1ccc(NC(=O)c2cccc3cccnc23)cc1S(N)(=O)=O
    -19 | -4 | i | -2 | -13 | -11 | 2 | 3
- O=C(CSc1nnc(-c2ccncc2)n1C1CC1)c1cccs1
    / | / | / | / | -68 | -10 | -2 | 2
- O=C(CCCCCN1C(=O)c2cccc3cccc(c23)C1=O)NCc1ccco1
    -4 | 9 | i | 15 | -4 | 24 | -2 | -1
- COc1ccc(CCNC(=O)CN(c2ccc(OC)cc2)S(C)(=O)=O)cc1
    / | 0 | i | 7 | 9 | / | 3 | 2

The results go on.
SMILES	CSC inhib	eIF4H FP inh	Rce1 inh	PABP polyA inh	Env fusion inh	Yeast UUG start	MT1-MMP act inh	MT1-MMP act inh RFP
CCOc1ccc(S(=O)(=O)NCCC(=O)N2CCCC(C)C2)cc1 (stereo unspecified)	0	/	i	/	21	4	3	0
CS(=O)(=O)Nc1ccc(C(=O)N2CCN(c3ccccc3)CC2)cc1	-7	8	i	2	/	1	2	5
COc1ccc(Cl)cc1-c1noc([C@@H]2O[C@H](CO)[C@@H](O)[C@H]2O)n1	/	/	/	/	33	-3	-1	4
Cc1ccc(C(=O)N/N=C\c2cccnc2)s1	7	-4	i	2	-21	-14	-1	2
COCC(C)NS(=O)(=O)c1ccc(C(=O)NCCCn2ccc3ccccc32)cc1 (stereo unspecified)	-1	-8	i	-10	-4	-9	4	0
CCCCN(CC)CCCNC(=O)C1c2ccccc2C(=O)N(C)C1c1cn(C)c2ccccc12 (stereo unspecified)	-12	1	i	11	-41	-11	-4	4
Cc1cc(Cl)ccc1NC(=S)NCC(O)c1ccccc1 (stereo unspecified)	-10	-9	i	4	-14	-7	2	6
CSCC[C@H](NC(=O)OC(C)(C)C)c1nnc(SCc2ccc(F)cc2)o1	-14	1	i	0	/	-11	-4	-21
Cc1cc(C)c(S(=O)(=O)Nc2ncn[nH]2)c(C)c1	-11	-11	i	-15	-226	-13	-2	-1
O=C(NC(=S)Nc1ccc(N2CCOCC2)cc1)c1cncc(Br)c1	-4	25	i	3	4	/	1	-2
CN(C)c1ccnc(C(=O)O)c1	9	9	/	1	-4	/	-3	4
COC(=O)c1cc(C(=O)N2CCN(c3ncccn3)CC2)cc([N+](=O)[O-])c1	-10	-4	i	2	11	-3	-1	-3
O=C(Nc1ccccc1)c1nsnc1C(=O)Nc1ccccc1	-8	5	i	0	-115	/	0	1
CCOc1ccccc1NC(=O)N1CCC(NC(=O)c2ccccc2C)CC1	-4	-7	i	-17	-42	-10	-5	0
CC(/C=C/c1ccccc1)=N\NC(=O)Cn1cncn1	-14	-2	i	4	-4	-7	1	2
O=C(COC(=O)CNC(=O)c1ccccc1)Nc1ccc(S(=O)(=O)N2CCOCC2)cc1	5	3	i	-6	6	/	3	5
O=C(Nc1ccc2c(c1)N(S(=O)(=O)c1cccs1)CCC2)c1c(F)cccc1F	-11	/	i	/	38	-9	-4	-3
COC(=O)[C@H](Cc1c[nH]c2ccccc12)NC(=O)NCc1ccc(OC)cc1	-8	5	i	13	12	5	3	-2
Cc1cc(C)c2oc(-c3ccc(Cl)c(NC(=O)c4ccc(C#N)cc4F)c3)nc2c1	7	-5	i	-7	/	-5	-6	1
COc1cccc(CNn2c(-c3cccc(C)c3)nc3ccccc3c2=O)c1O	-22	3	i	5	21	/	-5	-10
CC(NC(=O)Nc1ccc(F)cc1)C(c1cccs1)N1CCCC1 (stereo unspecified)	3	-9	i	4	/	-15	-7	-4
O=C(c1cccs1)N1CCN(C(=O)N2CCOCC2)CC1	-13	0	/	-7	-75	/	4	8
Cc1ccc2oc(C(=O)NCC(c3ccco3)N3CCCC3)c(C)c2c1 (stereo unspecified)	-6	0	i	6	-21	-17	2	-2
COc1ccc(/C=C2\SC(=S)N(CCC(=O)N(CCO)Cc3ccccc3)C2=O)cc1OC	6	5	i	2	5	-6	-2	-2
CCCCN(CC)CCCNC(=O)c1cn(CC)c2ccc(S(=O)(=O)N3CCc4ccccc4C3)cc2c1=O	-2	-5	i	4	-7	/	-9	-5
Cc1ccc(C)c(OCC(=O)Nc2ccc(N3CCOCC3)cc2)c1	43	-14	i	-8	14	/	1	-1
O=C(CSc1nc(-c2ccco2)cc(C(F)(F)F)n1)NCCc1ccccc1	0	0	i	-14	/	/	-9	-7
CCOC(=O)C1(Cc2cccc(OC)c2)CCCN(C(=O)CCSC)C1 (stereo unspecified)	-3	21	i	15	-7	-5	-1	-3
NC1=C(Br)C(=O)c2ccccc2C1=O	59	-3	i	-2	-6	-28	2	-3
O=C(NNc1c2ccccc2nc2ccccc12)c1ccc(O)cc1O	19	-7	i	-2	/	1	27	-9
COc1ccc(OCC(O)CN(C2CCCCC2)C2CCCCC2)cc1 (stereo unspecified)	-4	-1	i	-7	-62	-4	0	-1
NNC(=O)c1ncoc1-c1ccc(Cl)cc1	-13	-2	i	8	3	/	-1	7
Cc1ccc(C2(COC(=O)C(C)C)CO2)c(OC(=O)C(C)C)c1 (stereo unspecified)	-12	-3	+	6	/	-3	-1	6
COc1ccc(NS(=O)(=O)c2ccc(OC)c3ccccc23)cn1	-6	-6	i	7	/	-21	7	-4
COc1cc(OC)c2c(c1)OC(c1ccc(OC)c(OC)c1)C(O)C2=O (stereo unspecified)	10	1	i	-7	6	-5	-2	-3
C=CCN(c1nc(C)c(Br)c(OC)n1)S(=O)(=O)c1ccc(C)cc1	-3	1	i	1	15	-1	2	-3
O=C1CCCC/C1=N\Nc1ccc(OCc2ccccc2)cc1	70	4	i	-2	-17	/	-1	-4
COC(=O)c1sccc1NC(=O)CC1C(=O)NCCN1C(=O)c1ccccc1 (stereo unspecified)	-4	3	i	-6	4	-5	-1	1
CC1(C)CN(c2ccccc2)N(C(=O)c2ccc(C#N)cc2)C1=O	91*	-7	i	4	27	-9	-5	-2
COc1cccc(CN(C)C(=O)CSC(C)C(=O)Nc2cc(C)on2)c1OC (stereo unspecified)	-12	/	i	/	-28	6	5	5
COC(=O)c1ccccc1Nc1cc(C)nc2nc(C)nn12	-14	9	i	7	-43	-2	-1	3
Cc1ccc(S(=O)(=O)N2CCN(C(=O)Cn3c(=O)oc4ccccc43)CC2)cc1	-17	/	/	/	-33	0	-2	-1
CC(C)[C@H](NC(=O)c1ccccc1)C(=O)OCC(=O)Nc1ccc2c(c1)OCCO2	-3	2	i	-16	-4	/	-3	-3
O=C(CNC(=O)c1ccccc1Br)Nc1cccc(S(=O)(=O)Nc2ccccc2Cl)c1	/	/	/	/	-1	-2	2	-3
Cc1cc(C(=O)NNc2ccc(Cl)cc2)no1	117*	2	/	7	-9	-36	3	-1
Cc1c(OCC(=O)NC(Cc2c[nH]c3ccc(O)cc23)C(=O)O)ccc2c3c(c(=O)oc12)CCC3 (stereo unspecified)	/	30	i	49	-16	-8	2	1
O=C(COC(=O)CNC(=O)c1ccc(Cl)cc1Cl)NC(=O)NCc1ccccc1	/	/	i	/	15	-6	-3	3
C#CCN(C[C@H]1[C@H](OC(=O)NCCCCCC)[C@H](OC(=O)NCCCCCC)C[C@H]2C(=O)N(c3ccccc3)C(=O)[C@@H]12)S(=O)(=O)c1ccc(C)cc1	/	/	/	/	43	-28	0	-4
CCOC(=O)N1CCN(C(=O)/C(=C/c2ccc(Br)cc2)NC(=O)c2ccc(OC)cc2)CC1	-10	3	i	-6	-11	9	-4	2
Cc1ccc(S(=O)(=O)N2CCCCC2)cc1C(=O)Nc1cccnc1	0	?	i	?	22	/	1	-2

Source: PubChem BioAssay

Compounds as they come. Share with any hit: about 3%.
